# A1 apoptosis 2 = blocks A1, raising caspase activity; MEF A1-2A-BIM cells, caspase-Glo luminescence, 3 h; percent of clofoctol response, DMSO zero; caspase activation, % (test concentration not listed); 24,000 tested, under 10 active; in the data active = caspase activation above about 5.9%; inconclusive = no clear call, values can overlap the other calls; inactive = below about 2.2%;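 also: wells of about 30 µL received 50 nL stock; the first replicate is given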
#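 System: mouse embryonic fibroblasts co-expressing A1 and BIM (A1-2A-BIM), primed for A1 dependence; amount: 2500 cells/well; doses: 50 nL pinned compound; schedule: cells settled overnight, compound exposure 3 h at 37 °C, 5% CO2; detection: Caspase-Glo 3/7 luminescence, 1 h at room temperature; read-out: Caspase-3/7 activation, seen as rise in luminescence signal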
# * hit, by the source's call; ? = inconclusive. These rows are one share of the data. The share of hits here may be higher or lower than overall.
SMILES,A1 apoptosis 2
C[C@@H]1CN([C@@H](C)CO)C(=O)c2cc(NC(=O)Nc3ccc(C(F)(F)F)cc3)ccc2O[C@H]1CN(C)C,-1.8
Cc1noc(C)c1NC(=O)Nc1ccc2c(c1)C(=O)N([C@H](C)CO)C[C@@H](C)[C@@H](CN(C)Cc1ccccc1)OCCCC[C@H](C)O2,-1.3
Cc1ccc(S(=O)(=O)Nc2ccc3c(c2)CC(=O)N([C@@H](C)CO)C[C@H](C)[C@H](CN(C)Cc2ccc(C(=O)O)cc2)O3)cc1,1.3
C[C@H](CO)N1C[C@H](C)[C@H](CN(C)C(=O)Nc2cccc3ccccc23)Oc2ccc(NC(=O)C3CCCCC3)cc2CC1=O,0.0
C[C@H]1CCCCO[C@H](CN(C)S(=O)(=O)c2cccs2)[C@@H](C)CN([C@@H](C)CO)C(=O)c2cc(N(C)C)ccc2O1,-0.6
CC(C)NC(=O)Nc1cccc2c1O[C@H](CN(C)Cc1ccccc1)[C@H](C)CN([C@H](C)CO)C2=O,-0.9
Cc1noc(C)c1S(=O)(=O)N(C)C[C@H]1Oc2ccc(NS(=O)(=O)c3cn(C)cn3)cc2CC(=O)N([C@@H](C)CO)C[C@@H]1C,0.0
C[C@H](CO)N1C[C@H](C)[C@@H](CN(C)C(=O)Nc2ccc3c(c2)OCO3)Oc2ccc(NC(=O)C3CCCCC3)cc2CC1=O,-0.3
C[C@H]1CN([C@@H](C)CO)C(=O)c2cc(NS(=O)(=O)c3cn(C)cn3)ccc2O[C@H]1CN(C)C,0.3
C[C@H]1CN([C@@H](C)CO)C(=O)Cc2cc(NC(=O)CCC(F)(F)F)ccc2O[C@@H]1CN(C)S(=O)(=O)c1ccc(Cl)cc1,-1.3
COc1ccc(S(=O)(=O)N(C)C[C@@H]2OCCCC[C@H](C)Oc3ccc(NS(=O)(=O)c4ccc(F)cc4)cc3C(=O)N([C@H](C)CO)C[C@H]2C)cc1,0.9
C[C@@H]1CCCCO[C@@H](CN(C)C(=O)C2CCCCC2)[C@@H](C)CN([C@@H](C)CO)C(=O)c2cc(NC(=O)c3ccccc3)ccc2O1,-0.7
Cc1noc(C)c1NC(=O)N(C)C[C@@H]1OCCCC[C@@H](C)Oc2ccc(NC(=O)CCC(F)(F)F)cc2C(=O)N([C@H](C)CO)C[C@H]1C,1.3
Cc1noc(C)c1NC(=O)Nc1ccc2c(c1)C(=O)N([C@H](C)CO)C[C@H](C)[C@@H](CN(C)C(=O)NC1CCCCC1)O2,-0.4
Cc1noc(C)c1NC(=O)N(C)C[C@@H]1Oc2ccc(NC(=O)Cn3cnnn3)cc2C(=O)N([C@H](C)CO)C[C@H]1C,-1.0
C[C@@H]1CCCCO[C@@H](CN(C)C(=O)c2ccncc2)[C@@H](C)CN([C@@H](C)CO)C(=O)c2cc(NC(=O)CCC(F)(F)F)ccc2O1,-0.6
C[C@H]1CN([C@@H](C)CO)C(=O)c2cccc(NS(=O)(=O)c3ccc(F)cc3)c2O[C@@H]1CN(C)Cc1ccc(Cl)c(Cl)c1,-0.5
C[C@@H]1CN([C@H](C)CO)C(=O)c2cccc(NS(=O)(=O)c3cn(C)cn3)c2O[C@@H]1CN(C)C,-0.1
C[C@H]1CN([C@@H](C)CO)C(=O)c2cc(NC(=O)Nc3ccc(F)cc3)ccc2O[C@@H]1CN(C)S(=O)(=O)c1ccccc1,0.9
C[C@@H]1CN([C@H](C)CO)C(=O)c2cc(NC(=O)Nc3ccc(F)cc3)ccc2O[C@@H](C)CCCCO[C@H]1CN(C)C,1.7
C[C@@H]1CN([C@H](C)CO)C(=O)c2cc(NS(=O)(=O)c3ccc(F)cc3)ccc2O[C@H]1CN(C)S(C)(=O)=O,1.0
COc1ccc(NC(=O)N(C)C[C@@H]2Oc3ncc(C#Cc4ccc(C(F)(F)F)cc4)cc3C(=O)N([C@H](C)CO)C[C@@H]2C)cc1,-0.1
COc1ccc(S(=O)(=O)Nc2ccc3c(c2)C(=O)N([C@@H](C)CO)C[C@@H](C)[C@@H](CN(C)Cc2ccc(C(=O)O)cc2)O3)cc1,-0.7
C[C@H](CO)N1C[C@H](C)[C@H](CN(C)S(C)(=O)=O)OCCCC[C@H](C)Oc2ccc(NC(=O)Nc3ccc(F)cc3)cc2C1=O,0.2
COc1ccc(NC(=O)Nc2ccc3c(c2)CC(=O)N([C@H](C)CO)C[C@@H](C)[C@@H](CN(C)C(=O)Nc2ccc4c(c2)OCO4)O3)cc1,-1.2
C[C@H]1CN([C@@H](C)CO)C(=O)Cc2cc(NS(=O)(=O)c3ccc(F)cc3)ccc2O[C@@H]1CN(C)S(=O)(=O)c1ccccc1,-0.1
CC(C)NC(=O)Nc1ccc2c(c1)C(=O)N([C@@H](C)CO)C[C@@H](C)[C@@H](CN(C)C)OCCCC[C@@H](C)O2,0.3
O=C1c2ccccc2C(=O)N1C1CCN(Cc2ccc(OCCO)cc2)CC1,1.1
COc1ccc(NC(=O)N(C)C[C@@H]2OCCCC[C@@H](C)Oc3ccc(NC(=O)Nc4ccc5c(c4)OCO5)cc3C(=O)N([C@H](C)CO)C[C@H]2C)cc1,0.1
C[C@H]1CN([C@@H](C)CO)C(=O)Cc2cc(NC(=O)CCC(F)(F)F)ccc2O[C@H]1CN(C)C,0.5
COc1ccc(CN(C)C[C@@H]2OCCCC[C@@H](C)Oc3ccc(NS(C)(=O)=O)cc3C(=O)N([C@H](C)CO)C[C@@H]2C)cc1,-1.2
C[C@@H]1CCCCO[C@H](CN(C)C)[C@@H](C)CN([C@H](C)CO)C(=O)c2cc(NC(=O)CCC(F)(F)F)ccc2O1,-0.2
CC(C)NC(=O)Nc1ccc2c(c1)C(=O)N([C@@H](C)CO)C[C@@H](C)[C@H](CN(C)Cc1ccc(C(=O)Nc3ccccc3N)cc1)O2,-0.3
Cc1ccc(S(=O)(=O)N(C)C[C@@H]2OCCCC[C@H](C)Oc3ccc(NC(=O)Nc4ccc(F)cc4)cc3C(=O)N([C@@H](C)CO)C[C@@H]2C)cc1,-1.6
C[C@@H]1CN([C@H](C)CO)C(=O)c2cc(NC(=O)NC3CCCCC3)ccc2O[C@H]1CN(C)Cc1ccc(Cl)c(Cl)c1,-0.7
COCCCNC(=O)[C@@]1(C)c2ccccc2C(=O)N(Cc2cc(C(F)(F)F)cc(C(F)(F)F)c2)[C@H]1c1ccc(CO)cc1,0.0
COC(=O)CCCCCCC(=O)N/N=C/c1ccc(-c2ccccc2)cc1,-0.9
C[C@@H]1CCCCO[C@H](CN(C)Cc2ccc(C(F)(F)F)cc2)[C@@H](C)CN([C@H](C)CO)C(=O)c2cc(NC(=O)c3ccncc3)ccc2O1,1.0
Cc1ccc(S(=O)(=O)Nc2ccc3c(c2)C(=O)N([C@@H](C)CO)C[C@@H](C)[C@H](CN(C)C(=O)Nc2ccc(F)cc2)OCCCC[C@@H](C)O3)cc1,-0.3
CC(C)NC(=O)Nc1ccc2c(c1)C(=O)N([C@H](C)CO)C[C@@H](C)[C@H](CN(C)Cc1ccc(Cl)c(Cl)c1)O2,-0.8

# Part of the list above, with tabs:
structure	A1 apoptosis 2
COc1ccc(NC(=O)N(C)C[C@@H]2OCCCC[C@@H](C)Oc3ccc(NC(=O)Nc4ccc5c(c4)OCO5)cc3C(=O)N([C@H](C)CO)C[C@H]2C)cc1	0.1
C[C@H]1CN([C@@H](C)CO)C(=O)Cc2cc(NC(=O)CCC(F)(F)F)ccc2O[C@H]1CN(C)C	0.5
COc1ccc(CN(C)C[C@@H]2OCCCC[C@@H](C)Oc3ccc(NS(C)(=O)=O)cc3C(=O)N([C@H](C)CO)C[C@@H]2C)cc1	-1.2
C[C@@H]1CCCCO[C@H](CN(C)C)[C@@H](C)CN([C@H](C)CO)C(=O)c2cc(NC(=O)CCC(F)(F)F)ccc2O1	-0.2
CC(C)NC(=O)Nc1ccc2c(c1)C(=O)N([C@@H](C)CO)C[C@@H](C)[C@H](CN(C)Cc1ccc(C(=O)Nc3ccccc3N)cc1)O2	-0.3
Cc1ccc(S(=O)(=O)N(C)C[C@@H]2OCCCC[C@H](C)Oc3ccc(NC(=O)Nc4ccc(F)cc4)cc3C(=O)N([C@@H](C)CO)C[C@@H]2C)cc1	-1.6
C[C@@H]1CN([C@H](C)CO)C(=O)c2cc(NC(=O)NC3CCCCC3)ccc2O[C@H]1CN(C)Cc1ccc(Cl)c(Cl)c1	-0.7
COCCCNC(=O)[C@@]1(C)c2ccccc2C(=O)N(Cc2cc(C(F)(F)F)cc(C(F)(F)F)c2)[C@H]1c1ccc(CO)cc1	0.0
COC(=O)CCCCCCC(=O)N/N=C/c1ccc(-c2ccccc2)cc1	-0.9

# Additional entries.
SMILES,A1 apoptosis 2
C[C@H](CO)N1C[C@H](C)[C@H](CN(C)C(=O)Nc2ccccc2)Oc2ccc(NC(=O)Cn3cnnn3)cc2C1=O,-0.5
Cc1noc(C)c1S(=O)(=O)Nc1ccc2c(c1)CC(=O)N([C@H](C)CO)C[C@H](C)[C@@H](CN(C)Cc1ccc3c(c1)OCO3)O2,0.2
C[C@@H]1CN([C@@H](C)CO)C(=O)Cc2cc(NC(=O)CCCCCC(=O)Nc3ccccc3N)ccc2O[C@@H]1CN(C)Cc1ccncc1,0.5
Cc1ccc(S(=O)(=O)N(C)C[C@H]2Oc3ccc(NC(=O)CCCCCC(=O)Nc4ccccc4N)cc3CC(=O)N([C@H](C)CO)C[C@H]2C)cc1,0.3
Cc1noc(C)c1NC(=O)N(C)C[C@H]1Oc2ccc(NS(=O)(=O)c3ccccc3)cc2C(=O)N([C@@H](C)CO)C[C@H]1C,-0.5
O=C(CCCCC(=O)N/N=C/c1cccnc1Br)NO,1.2
C[C@H]1CN([C@@H](C)CO)C(=O)c2cc(NC(=O)Cc3ccccc3)ccc2O[C@@H]1CN(C)C(=O)NC1CCCCC1,0.0
COc1ccc(CN(C)C[C@@H]2Oc3ccc(NS(=O)(=O)c4ccc(OC)cc4)cc3CC(=O)N([C@H](C)CO)C[C@@H]2C)cc1,-0.5
C[C@@H]1CN([C@H](C)CO)C(=O)c2cc(NS(C)(=O)=O)ccc2O[C@@H]1CN(C)C(=O)Nc1ccc2c(c1)OCO2,0.6
C[C@H]1CN([C@@H](C)CO)C(=O)c2cc(NC(=O)c3ccncc3)ccc2O[C@H]1CN(C)C,-2.1
O=C(N/N=C/c1ccc(Br)o1)c1ccccn1,-3.5
O=C(CCCCCC(=O)Nc1ccccc1O)N/N=C/c1ccccc1C(=O)O,-0.8
O=C(N/N=C/c1ccc(-n2ccnc2)cc1)c1ccccn1,-9.0
C[C@H](CO)N1C[C@H](C)[C@H](CN(C)C(=O)NC2CCCCC2)Oc2ncc(C#Cc3ccccc3)cc2C1=O,?
C[C@@H]1CN([C@@H](C)CO)C(=O)c2cccc(N(C)C)c2O[C@@H]1CN(C)C(=O)Nc1cccc2ccccc12,-0.5
COc1ccc(S(=O)(=O)Nc2ccc3c(c2)C(=O)N([C@@H](C)CO)C[C@@H](C)[C@@H](CN(C)S(=O)(=O)c2cccs2)O3)cc1,0.2
C[C@H]1CN([C@@H](C)CO)C(=O)c2cccc(NC(=O)Nc3cccc4ccccc34)c2O[C@H]1CN(C)C(=O)Nc1ccc(F)cc1,-1.0
C[C@H]1CN([C@@H](C)CO)C(=O)CCCn2cc(nn2)CO[C@H]1CN(C)C(=O)Nc1ccc(F)cc1,0.6
COc1ccc(NC(=O)N(C)C[C@H]2Oc3ccc(NC(=O)c4ccncc4)cc3C(=O)N([C@H](C)CO)C[C@@H]2C)cc1,-0.2
Cc1noc(C)c1S(=O)(=O)N(C)C[C@@H]1OCCCC[C@@H](C)Oc2ccc(NC(=O)CCCN(C)C)cc2C(=O)N([C@H](C)CO)C[C@@H]1C,-0.7
C[C@@H]1CN([C@H](C)CO)C(=O)c2cc(NS(=O)(=O)c3ccccc3)ccc2O[C@@H](C)CCCCO[C@@H]1CN(C)C(=O)CCCN(C)C,0.4
C[C@H](CO)N1C[C@H](C)[C@@H](CN(C)C(=O)c2ccccc2)OCCCC[C@H](C)Oc2ccc(NC(=O)Nc3ccccc3)cc2C1=O,0.4
Cc1noc(C)c1S(=O)(=O)Nc1ccc2c(c1)C(=O)N([C@H](C)CO)C[C@@H](C)[C@H](CN(C)C(=O)C1CCCCC1)OCCCC[C@@H](C)O2,1.1
COc1cc2c(cc1OC)CN(C(=O)[C@H]1[C@@H]3C(=O)O[C@@H](c4ccccc4)[C@@H](c4ccccc4)N3[C@@H](c3ccccc3OCCO)[C@]13C(=O)Nc1ccc(C#CCNC(N)=O)cc13)CC2,-0.5
COc1ccc(S(=O)(=O)N(C)C[C@H]2OCCCC[C@@H](C)Oc3ccc(NC(=O)CCCN(C)C)cc3C(=O)N([C@H](C)CO)C[C@@H]2C)cc1,0.2
COc1ccc(S(=O)(=O)Nc2ccc3c(c2)C(=O)N([C@@H](C)CO)C[C@H](C)[C@H](CN(C)S(=O)(=O)c2ccccc2)OCCCC[C@@H](C)O3)cc1,0.8
COc1ccc(NC(=O)N(C)C[C@@H]2Oc3ccc(NS(=O)(=O)c4cccs4)cc3CC(=O)N([C@H](C)CO)C[C@H]2C)cc1,-0.5
C[C@@H]1CN([C@@H](C)CO)C(=O)c2cccc(NC(=O)c3ccc(-c4nccs4)cc3)c2O[C@H]1CN(C)CC1CC1,-0.5
C[C@H]1CN([C@@H](C)CO)C(=O)Cc2cc(NC(=O)CCCCCC(=O)Nc3ccccc3N)ccc2O[C@@H]1CN(C)Cc1ccccc1,0.1
C[C@H](CO)N1C[C@H](C)[C@H](CN(C)Cc2ccc(C(F)(F)F)cc2)Oc2ccc(NC(=O)Nc3ccccc3)cc2CC1=O,0.1
C[C@@H]1CN([C@H](C)CO)C(=O)Cc2cc(NC(=O)c3ccncc3)ccc2O[C@H]1CN(C)Cc1ccc(C(F)(F)F)cc1,-0.2
C[C@@H]1CCCCO[C@@H](CN(C)Cc2ccccc2)[C@H](C)CN([C@@H](C)CO)C(=O)c2cc(NC(=O)Nc3cccc4ccccc34)ccc2O1,-1.3
